From PubChem
Beta cell apopt = beta cell apoptosis inhibition | 300,000 compounds, 0.8% hits | AID 435005 | INS-1E cytokine-induced death, ATP luminescence, 48 h; percent of positive-control rescue, neutral wells zero | protection from apoptosis, % (test concentration not listed);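 active = all replicates at 75% or more, or half of them and the mean; inconclusive = half reach 75% but not the mean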;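 note: 0% = cytokine-treated negative control wells and 100% = positive control rescue; higher means more ATP so stronger rescue from cytokine killing; wells of about 40 µL received 100 nL stock; the first replicate is given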
T cruzi repl = T. cruzi replication inhibition; T. cruzi beta-gal in NIH3T3, luminescence, 90 h; inhibition, % (no concentration beside the values); 300,000 compounds, 1.4% hits; AID 1885;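 active = mean inhibition across valid replicates above about 55%, limit read from the data; inconclusive = mean below that limit but half or more replicates reach it; inactive = mean below it, under half of replicates reach it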;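 note: signal also drops with host cell toxicity which is not excluded here; 0% = plate median of DMSO wells and 100% = zero luminescence signal; higher percent means less beta-gal luminescence so fewer parasites; stock transfer was 50 nL into about 50 µL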
LANA-H2A inh = blocks KSHV LANA binding to histone H2A/H2B; Q9QR71; cell-free LANA-H2A/H2B peptide, fluorescence polarization; inhibition, % (test concentration not listed); 320,000 compounds, 0.6% hits; in the data active = inhibition mostly above about 10%, no sharp cut-off; inactive = mostly below about 6.7%;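 note: stock transfer was 7.5 nL into about 10 µL; 0% = median of vehicle wells and 100% = median of positive control wells; one replicate is shown; the record names a cut of 25% in any replicate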
Target sequence (Q9QR71 whole entry, looked up): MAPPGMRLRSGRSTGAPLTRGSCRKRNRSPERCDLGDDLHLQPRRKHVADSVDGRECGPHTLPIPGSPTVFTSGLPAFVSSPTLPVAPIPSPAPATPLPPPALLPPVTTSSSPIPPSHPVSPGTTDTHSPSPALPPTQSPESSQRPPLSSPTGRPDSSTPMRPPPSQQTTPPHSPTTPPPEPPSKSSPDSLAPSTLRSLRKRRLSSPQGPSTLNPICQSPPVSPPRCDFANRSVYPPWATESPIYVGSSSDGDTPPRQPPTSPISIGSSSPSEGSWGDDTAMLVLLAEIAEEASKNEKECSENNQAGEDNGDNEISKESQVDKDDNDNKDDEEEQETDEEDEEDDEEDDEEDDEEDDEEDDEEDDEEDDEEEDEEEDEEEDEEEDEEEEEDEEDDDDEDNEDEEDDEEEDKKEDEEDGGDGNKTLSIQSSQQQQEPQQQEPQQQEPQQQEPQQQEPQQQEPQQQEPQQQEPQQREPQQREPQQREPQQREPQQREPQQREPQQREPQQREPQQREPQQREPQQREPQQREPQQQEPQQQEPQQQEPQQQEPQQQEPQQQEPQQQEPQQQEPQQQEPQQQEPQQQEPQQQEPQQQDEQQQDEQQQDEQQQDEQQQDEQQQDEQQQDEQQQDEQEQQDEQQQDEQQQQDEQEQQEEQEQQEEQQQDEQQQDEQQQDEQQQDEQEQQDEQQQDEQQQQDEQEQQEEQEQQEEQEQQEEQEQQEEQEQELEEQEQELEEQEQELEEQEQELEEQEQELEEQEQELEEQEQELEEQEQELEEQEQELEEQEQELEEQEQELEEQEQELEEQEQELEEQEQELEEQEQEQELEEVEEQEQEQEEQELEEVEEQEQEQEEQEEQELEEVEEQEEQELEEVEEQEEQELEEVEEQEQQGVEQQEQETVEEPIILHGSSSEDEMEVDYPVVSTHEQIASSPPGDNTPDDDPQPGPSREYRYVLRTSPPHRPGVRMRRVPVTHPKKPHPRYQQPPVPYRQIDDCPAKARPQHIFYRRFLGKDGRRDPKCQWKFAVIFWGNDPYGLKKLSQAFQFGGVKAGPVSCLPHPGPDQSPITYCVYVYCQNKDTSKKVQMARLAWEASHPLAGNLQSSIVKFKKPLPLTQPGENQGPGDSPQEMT
Bfl-1 A1 inh = inhibitors of the anti-apoptotic protein A1, read as caspase activation; caspase activation, % (no concentration beside the values); 330,000 compounds, 0.066% hits; MEF A1-2A-BIM cells, Caspase-Glo 3/7 luminescence, 3 h; percent of clofoctol response, vehicle zero;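 active = over half of replicate activation scores above 10%, or exactly half above 10 with the replicate mean above 10; inconclusive = replicate mean below 10 yet half the replicates above 10; inactive = over half of replicates below 10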;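 note: wells of about 30 µL received 50 nL stock; many hits fall short of the cut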
AF4-AF9 inh = inhibitors of human MLL-AF4/AF9 interaction | AlphaScreen, biotin-AF4 peptide binding to FLAG-AF9 | inhibition, % at 10 µM | 350,000 compounds, 0.47% hits | AID 651704;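 active = every replicate reaching a set inhibition limit, whatever the replicate mean, cut at about 25% in these data; inconclusive = mean inhibition reaches that limit but some replicates miss it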;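 note: 0% = plate neutral control median and 100% = total signal loss; the record names both 10 and 1 µM as test concentration; the first replicate is given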
Vif TR-FRET = inhibitors of Vif binding to APOBEC3G peptide, primary screen, biochemical, TR-FRET, GST-Vif 1-94, biotin-A3G peptide, dose response retest (AID 1117319) | TR-FRET GST-Vif / biotin-A3G peptide binding; higher % means a stronger effect; test concentration not given here; strong numbers were not always called active | inhibition, %; hits with a dose series show IC50 in µM | 260,000 compounds, 0.57% hits;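 active = above the screen mean plus three standard deviations and confirmed in dose response; inconclusive = results disagree or hit not tested in dose response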;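 note: Vif residues 1-94 fused to GST binding biotinylated APOBEC3G peptide 110-148; 0% = full assay without inhibitor and 100% = GST in place of GST-Vif; retest series ran down from 100 µM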
RanGTP-Impb inh = disruptors of Ran-importin-beta complex formation – biochemical, FRET, CFP-Ran, YFP-importin-beta, homogeneous, primary screen | 300,000 compounds, 1.1% hits | inhibition, % (concentration not given with the values) | AID 2216 | cell-free CFP-Ran/YFP-importin-beta FRET ratio;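 active = most replicates above 15%; inconclusive = exactly half above 15%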;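 note: 0% = DMSO wells and 100% = Ran loaded with GDP instead of GTP; wells of about 40 µL received 100 nL stock; the first replicate is given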
Calb FLC = affects C. albicans growth with fluconazole. C. albicans CaCi-2 (fluconazole-resistant clinical isolate) + fluconazole, Alamar Blue growth, 48 h. growth inhibition, % (test concentration not listed). 300,000 compounds, 0.57% hits;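 active = most replicates above 75%; inconclusive = exactly half above 75%; inactive = most below 75%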;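 note: all wells also contain fluconazole at 8 µg/ml as a sub-toxic cotreatment; 0% = median of DMSO wells and 100% = median of geldanamycin control wells; wells of about 8 µL received 7.5 nL stock; the first replicate is given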
Numbers without * were called inactive; ? = inconclusive; / = no result given. Rows are unselected. About 4.3% of those tested had a hit in this group.

SMILES	Beta cell apopt	T cruzi repl	LANA-H2A inh	Bfl-1 A1 inh	AF4-AF9 inh	Vif TR-FRET	RanGTP-Impb inh	Calb FLC
O=C(N/N=C/c1ccco1)C1COc2ccccc2O1 (stereo not drawn)	1	-14	-4.0	-0.3	/	/	?	-9
CC1CN(C(=O)C(C)Sc2nc3ccccc3s2)CC(C)O1 (stereo not drawn)	-3	5	-2.0	0.5	/	15%	-3.7	-2
CC(C)CC(COCc1ccc(Cl)cc1)N1CCN(C(=O)c2cccc(C(F)(F)F)c2)CCC1=O (stereo not drawn)	0	2	-0.5	-0.8	3.4	29%	-1.9	13
N#Cc1ccc(S(=O)(=O)N2CCC(C(=O)Nc3cccc(C(=O)NC4CC4)c3)CC2)cc1	4	/	-0.3	0.3	2.9	/	/	/
COc1ccc(Cl)cc1NC(=O)c1nnn(CC(=O)Nc2ccc3c(c2)OCO3)c1N	/	9	0.4	0.6	-7.7	/	4.5	0
CC(C)c1ccc(N(CC(=O)NCc2ccc(F)cc2)C(=O)c2csnn2)cc1	2	3	5.5	0.5	-0.3	6%	1.1	-4
COc1cc2cnc(C3=CCCCC3)cc2cc1OC	-6	/	3.0	-1.2	3.2	/	/	/
Cc1cc(=O)oc2cc(OCC(=O)Nc3ccc(CN4CCOCC4)cc3)ccc12	2	5	4.7	-1.1	-1.1	-4%	1.9	1
O=C(N/C=N/O)C(c1ccccc1)c1ncc(C(F)(F)F)cc1Cl (stereo not drawn)	/	-8	6.3	1.1	0.8	-5%	6.3	9
CCCCCc1c(C)nc(Nc2ccc(F)cc2)[nH]c1=O	0	-12	2.3	0.4	/	-3%	-4.8	-2
O=C(c1ccc([N+](=O)[O-])cc1)N1CCN(C(=O)c2cccs2)CC1	5	9	-12	-0.2	-0.3	-6%	1.5	1
Nc1nonc1-n1nnc(C(=O)N/N=C/c2c(F)cccc2Cl)c1-c1ccc2c(c1)OCO2	0	11	2.7	0.0	0.0	/	-4.8	1
COc1cccc(NC(=S)N(CCN(C)C)C(C)c2ccco2)c1 (stereo not drawn)	-11	-6	0.6	0.1	/	/	5.4	3
CN(C)c1ccc(CNC(=O)C2CCN(S(=O)(=O)c3ccc4c(c3)CCC(=O)N4)CC2)cc1	1	-4	1.4	-0.1	/	5%	-2.0	1
O=C(CCS(=O)(=O)c1ccc(Br)cc1)NCc1ccco1	-8	-2	-0.9	-0.2	-1.3	/	2.4	11
Cc1ccc(S(=O)(=O)N2CCN(C(=O)CSc3n[nH]c(N)n3)CC2)c(C)c1	4	/	0.4	0.1	-2.6	3%	/	/
Cc1nc(N)sc1-c1csc(Nc2ccccc2)n1	-5	-20	2.7	-4.5	/	11%	2.4	11
CCOC(=O)c1sc(NNC(=O)c2ccc(C)cc2)nc1C	-4	-10	0.2	0.0	1.7	-5%	0.3	5
CCCCC(CCC(=O)Nc1ccc(C(=O)OCC)cc1)C(=O)O (stereo not drawn)	3	7	-3.4	-0.4	/	11%	4.4	-8
CC(=O)C(Sc1nc(N2CCOCC2)nc(N2CCOCC2)n1)C(=O)Nc1ccccc1 (stereo not drawn)	7	-14	7.4	0.4	/	-1%	5.9	-1
CCOc1ccc(S(=O)(=O)N(CC)CC)cc1NC(=O)CSCc1c(C)noc1C	5	-4	3.1	-0.5	-4.2	/	-0.2	26
C/C(CC(=O)Nc1ccc(Br)cc1)=N\NC(=O)c1cccc(O)c1	-1	4	-0.2	0.9	2.9	/	3.8	10
O=C(Nc1cccc(/C=C/c2nc3ccccc3c(=O)[nH]2)c1)c1ccccc1Cl	0	0	4.0	-1.3	-11	-18%	3.3	8
O=C(NCCCn1ccnc1)c1cccc(S(=O)(=O)NCc2ccccc2)c1	2	-12	1.9	-0.4	-1.1	-1%	-1.7	2
Cn1c(NC(=O)C2c3ccccc3Oc3ccccc32)cc(=O)n(C)c1=O	0	/	1.2	-1.5	/	6%	/	/
Cc1ccc(C2=NN=C(NC(=O)CSc3nnc4c5ccccc5n(C)c4n3)SC2)cc1	3	20	-3.9	-0.6	/	-6%	3.3	0
Fc1ccc2nc(Nc3nc4c(F)cccc4s3)sc2c1	50	-5	1.5	0.6	/	/	4.7	8
COc1cccc(NC(=O)CSc2nc3c(c(-c4ccco4)c2C#N)CCCC3)c1	0	-6	-0.8	0.3	/	0%	5.1	-9
CSc1ccccc1NC(=O)COC(=O)c1ccc(-n2nc(C)cc2C)cc1	-5	/	3.5	0.7	-9.3	/	/	/
C/C(=N\NC(=O)c1ccc(CSc2nc(C)cc(C)n2)cc1)c1ccco1	0	9	2.2	0.6	-0.7	/	2.4	16
O=C(OCC(=O)N1CCN(c2ccccc2)CC1)c1ccc[n+]([O-])c1	-4	-4	-2.8	0.1	1.0	11%	1.5	-9
CN(C(=O)c1ccc(NC(=O)Cc2ccc(NC(=O)C3CCN(C(=O)CCc4ccccc4)CC3)cc2)cc1)C1CC1	1	/	2.3	-1.1	6.0	/	/	/
Cc1cc(N=Nc2ccccc2)c(NCC(O)C(O)C(O)CO)cc1C (stereo not drawn)	4	4	0.7	0.1	15	9%	0.9	4
CCC(=O)Nc1ccc(C(=O)Nc2cccc(OC)c2)cc1	-5	-19	0.1	-11	/	2%	4.8	7
CCOc1ccc(N2CC(C(=O)NCCCN3CCOCC3)CC2=O)cc1 (stereo not drawn)	-2	-12	-4.3	1.6	/	-1%	4.5	-7
Cc1cc(=O)n(C)c(=O)n1CCCCOc1ccc([N+](=O)[O-])cc1	-2	-11	-5.1	-0.1	1.6	/	5.4	-10
Cn1cccc1/C=N/n1c(-c2ccc(C(C)(C)C)cc2)n[nH]c1=S	/	-42	-2.4	-0.1	/	2%	1.7	20
O=S(=O)(c1ccc(F)cc1)N1CCCN(c2nccc(C(F)(F)F)n2)CC1	-2	-3	3.5	1.0	-1.2	6%	1.7	2
COc1cccc(CC2(CO)CCCN(Cc3cn[nH]c3-c3ccc(F)cc3)C2)c1 (stereo not drawn)	1	13	0.9	0.0	5.7	-19%	3.4	8
CCOC(=O)NN1C(=O)c2ccccc2NC1c1ccc(N(C)C)cc1 (stereo not drawn)	-5	-18	1.9	0.2	/	-1%	-2.7	9
O=C1[C@H]2[C@@H](C(=O)N1c1cc(Cl)cc(Cl)c1)[C@]1(C(=O)Nc3ccccc31)N1CCC[C@@H]21	-7	-3	-1.8	-0.3	/	19%	-2.6	18
CC(=O)N1N=C(c2ccc(Br)cc2)OC1(C)CC(=O)Nc1ccccc1 (stereo not drawn)	10	14	3.4	1.1	/	/	2.0	-2
COc1cc(C(=O)c2cocc2C(=O)c2ccc3c(c2)OCO3)cc(OC)c1OC	45	-46	1.4	0.5	1.7	1%	-1.4	-1
CC(C)c1nnc(NC(=O)COc2ccc3ccccc3c2)s1	-10	-6	2.6	-1.4	1.5	/	-2.7	4
Cc1cc(Oc2cnn(C(C)(C)C)c(=O)c2Cl)cc(C(C)C)c1	4	19	8.0	1.4	/	-2%	5.9	-7
O=C(C1CCN(c2nnc(-n3cccc3)s2)CC1)N1CCN(c2cccc(C(F)(F)F)c2)CC1	17	34	-1.8	-0.9	/	2%	0.6	26
N#Cc1c(N2CCOCC2)nc(-c2ccco2)c2c1CCCC2	0	31	1.0	-0.2	/	?	4.2	1
O=C(CSc1ccc2ccccc2n1)N/N=C/c1ccccc1O	-5	17	-5.4	0.3	-5.4	-1%	-4.1	-4
COc1ccc(OC)c(-c2cc(C(=O)NCc3cccs3)no2)c1	0	12	4.0	-1.2	/	67%	?	-18
N#Cc1ccccc1NC(=O)CC1CCCCC1	-6	-15	4.8	0.9	/	1%	1.2	-1
The list goes on.
SMILES	Beta cell apopt	T cruzi repl	LANA-H2A inh	Bfl-1 A1 inh	AF4-AF9 inh	Vif TR-FRET	RanGTP-Impb inh	Calb FLC
Cc1ccccc1Nc1nc(N)nc(COC(=O)c2cccc(S(=O)(=O)NCc3ccccc3)c2)n1	-1	-23	5.0	-0.8	-1.0	-3%	-0.6	-9
CN1CCc2c(sc(NC(=O)c3ccc([N+](=O)[O-])o3)c2C(N)=O)C1	-9	64*	-3.9	0.8	7.1	/	/	/
COC(=O)c1ccc(NC(=O)C2CCN(S(C)(=O)=O)CC2)cc1	-8	20	-4.0	0.8	/	0%	1.0	-6
Cc1cc(OC(C)C(=O)NCC(O)c2ccccc2)c2c(C)c(C)c(=O)oc2c1 (stereo not drawn)	6	5	-3.4	0.1	-1.7	-3%	4.8	-1
